# Ecoli rRNA inh: inhibits bacterial ribosomal RNA function over humanized ribosomes; GFP signal change (wild-type ribosome), % (no concentration beside the values); E. coli WT GFP vs humanized-ribosome RFP mutants, fluorescence, 24 h; stronger effect = lower value; DMSO median 0, no signal -100; 350,000 tested, 1.6% active; AID 720706;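 active = significant combined selectivity score with lowered wild-type GFP, culture density cut under 30%, mutant RFP and density less affected; inactive = any of these conditions unmet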; note: one replicate is shown; some compounds called inactive have numbers as strong as hits
# HNF4A DNA FP: change in binding of human HNF4 alpha to DNA. P41235. HNF4a-FITC DNA binding, fluorescence polarization, 1 h. activity change, % at 10 µM. 360,000 tested, 0.3% active; in the data active = activity change above about 30%, passing the limit was not always enough;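 note: controls were the assay level and a saturating level of protein; the project sought stronger binding though the title names inhibitors; some compounds called inactive have numbers as strong as hits; positive values seem to mean higher polarization but the record does not say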
# Target sequence (P41235 whole entry, looked up): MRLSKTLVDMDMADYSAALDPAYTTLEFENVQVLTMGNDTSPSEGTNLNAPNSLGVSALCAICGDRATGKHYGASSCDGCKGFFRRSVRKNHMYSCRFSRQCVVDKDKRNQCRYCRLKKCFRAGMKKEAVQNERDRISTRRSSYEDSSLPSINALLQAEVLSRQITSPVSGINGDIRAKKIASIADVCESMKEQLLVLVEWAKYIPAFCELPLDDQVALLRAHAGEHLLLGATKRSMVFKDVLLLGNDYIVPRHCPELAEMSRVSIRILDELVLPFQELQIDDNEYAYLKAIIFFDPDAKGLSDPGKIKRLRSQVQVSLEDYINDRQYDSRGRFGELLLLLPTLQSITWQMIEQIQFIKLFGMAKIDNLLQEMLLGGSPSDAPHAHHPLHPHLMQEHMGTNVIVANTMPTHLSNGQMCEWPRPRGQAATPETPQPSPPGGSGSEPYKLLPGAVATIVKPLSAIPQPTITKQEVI
# Vif A3G: HIV-1 Vif–A3G interaction blockers – biochemical, TR-FRET, GST-Vif 1-94, biotin-A3G peptide, dose response retest, primary screen (AID 1117319); one-dose inhibition, %; IC50 in µM for titrated hits; 260,000 tested, 0.57% active; TR-FRET GST-Vif / biotin-A3G peptide binding; higher % means a stronger effect; test concentration not given here; strong numbers were not always called active;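 active = above the screen mean plus three standard deviations and confirmed in dose response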;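 note: Vif residues 1-94 fused to GST binding biotinylated APOBEC3G peptide 110-148; 0% = full assay without inhibitor and 100% = GST in place of GST-Vif; retest series ran down from 100 µM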
# ALR H2O2 inh: human ALR oxidase inhibition via reduced H2O2. P55789. purified ALR, DTT oxidation, H2O2 HRP-luminol luminescence. inhibition, % (test concentration not listed). 290,000 tested, 3.8% active;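 active = mean and each replicate at 75% or more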;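 note: stock transfer was 7.5 nL into about 7.5 µL; 0% = neutral wells and 100% = wells with inactivated enzyme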
# Target sequence (P55789 whole entry, looked up): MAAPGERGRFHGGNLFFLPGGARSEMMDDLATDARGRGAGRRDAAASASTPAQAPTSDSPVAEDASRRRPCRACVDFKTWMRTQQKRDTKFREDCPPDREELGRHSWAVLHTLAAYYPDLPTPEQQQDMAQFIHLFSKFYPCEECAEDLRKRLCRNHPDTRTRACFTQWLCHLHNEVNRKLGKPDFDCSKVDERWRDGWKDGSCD
# FGF22 binding: binders of recombinant human FGF22 by thermal shift. Q9HCT0. SYPRO orange fluorescence; percent of sucrose octasulfate shift, DMSO zero. calls only at 9.99 µM. 340,000 tested, 1.5% active. AID 651658;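 active = melting point raised past a set limit in the mean and every replicate; three in four hits are not shown here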
# Target sequence (Q9HCT0 whole entry, looked up): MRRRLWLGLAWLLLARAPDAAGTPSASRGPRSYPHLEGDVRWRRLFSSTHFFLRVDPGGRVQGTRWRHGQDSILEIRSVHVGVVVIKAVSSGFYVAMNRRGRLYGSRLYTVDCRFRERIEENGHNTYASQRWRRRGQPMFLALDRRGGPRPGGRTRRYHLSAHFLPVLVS
# MLL AF4-AF9 inh: blocks AF4 peptide binding to human AF9; AlphaScreen, biotin-AF4 peptide binding to FLAG-AF9; 350,000 tested, 0.47% active; inhibition, % at 10 µM; AID 651704; P42568;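 active = every replicate reaching a set inhibition limit, whatever the replicate mean, cut at about 25% in these data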;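 note: 0% = plate neutral control median and 100% = total signal loss; the record names both 10 and 1 µM as test concentration; the first replicate is given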
# E coli growth: E. coli growth inhibition; AID 1053175; 330,000 tested, 0.21% active; OD600 absorbance (no concentration beside the values); Escherichia coli growth, OD600, 23 h; stronger effect = lower value;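 active = OD600 absorbance below the run mean of sample wells minus 3.6 SD, in any replicate, cut at about 0.56 in these data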;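 note: stock transfer was 300 nL into about 60 µL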
# Ecoli rRNA inh OD600: recorded beside Ecoli rRNA inh, whose call it bears; OD600 change, %; measured here: OD600 growth;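 optical density of the mix in the first replicate; 0 = DMSO median and -100 = no signal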
# Ecoli rRNA inh RFP: further read-out of Ecoli rRNA inh, marked with its call; RFP signal change, %; measured here: RFP humanized mutant strains;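 first replicate; 0 = DMSO median and -100 = no signal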
# Active calls of the source: *; i = inactive; · = no result given; & = joins results of further samples. Not all compounds are listed; the hit share may differ from the screen's.
# Sample of the layout:
SMILES,Ecoli rRNA inh,Ecoli rRNA inh OD600,Ecoli rRNA inh RFP,HNF4A DNA FP,Vif A3G,ALR H2O2 inh,FGF22 binding,MLL AF4-AF9 inh,E coli growth
C[C@@H]1CN([C@@H](C)CO)C(=O)Cc2cc(NC(=O)C3CCCCC3)ccc2O[C@@H]1CN(C)C,6.1,11.1,0.9,·,·,·,i,-1.3,·
O=C(N[C@H]1CC[C@H](CCNS(=O)(=O)c2ccc(F)cc2)O[C@H]1CO)c1ccccn1,2.1,6.9,-0.7,·,·,·,i,1.8,·

# Main list, previewed entries included:
SMILES,Ecoli rRNA inh,Ecoli rRNA inh OD600,Ecoli rRNA inh RFP,HNF4A DNA FP,Vif A3G,ALR H2O2 inh,FGF22 binding,MLL AF4-AF9 inh,E coli growth
C[C@@H]1CN([C@@H](C)CO)C(=O)Cc2cc(NC(=O)C3CCCCC3)ccc2O[C@@H]1CN(C)C,6.1,11.1,0.9,·,·,·,i,-1.3,·
O=C(N[C@H]1CC[C@H](CCNS(=O)(=O)c2ccc(F)cc2)O[C@H]1CO)c1ccccn1,2.1,6.9,-0.7,·,·,·,i,1.8,·
CC=Cc1ccc2n(c1=O)C[C@H]1[C@H](CO)[C@@H](C(=O)N3CCc4ccccc4C3)[C@@H]2N1Cc1ccccc1 (mixture of isomers),-3.9,-4.5,6.9,·,·,·,i,2.8,·
CC(C)(O)C#Cc1ccc(N2C(c3ccsc3)=Cc3ccc(F)cc3C2c2c[nH]c3ccc(C#N)cc23)cc1 (centres undefined),-40.5,-77.2,-13.6,23.1,·,·,i,-1.4,·
Cc1cc(Cl)ccc1OCC(=O)N1CCCCC1,·,·,·,4.0,1.3%,-2.9,·,·,0.693
O=C(NC(=S)NCc1ccccc1)c1cccc(Cl)c1,-13.7,-16.7,-12.5,3.2,-5.7%,0.9,i,-0.2,0.64
NC(=O)CSc1nc2c(c(=O)n1-c1ccccc1)C1(CCCCC1)Cc1ccccc1-2,·,·,·,-1.7,·,-14.6,i,-2.1,0.714
Cc1cccc(S(=O)(=O)C(C#N)c2nc3ccccc3nc2N2CC(C)OC(C)C2)c1 (centres undefined),·,·,·,1.2,24.9%,12.6,·,·,0.706
COc1cccc(-c2ccc([C@@H]3[C@@H](CO)N4C(=O)CN(C(=O)c5cccnc5)C[C@@H]34)cc2)c1,-4.4,3.1,-1.9,·,·,·,i,-3.3,·
C[C@@H]1CCCCO[C@@H](CN(C)C(=O)CCC(F)(F)F)[C@H](C)CN([C@H](C)CO)C(=O)c2cc(NC(=O)NC3CCCCC3)ccc2O1,-2.5,-4.9,0.8,·,·,·,i,-0.6,·
Cc1nc2ccccc2nc1OCc1ccc([N+](=O)[O-])cc1,9.5,13.0,-3.8,3.7,9.3%,-1.2,i,1.6,0.697
c1ccc(N2CCN(c3nnc(Cc4cccnc4)c4ccccc34)CC2)nc1,·,·,·,2.8,0.7%,-19.8,·,·,0.642
O=C(c1ccncc1)N1C[C@@H]2[C@H](c3ccccc31)[C@H](CO)N2C(=O)CN1CCOCC1,4.7,7.3,-1.0,·,·,·,i,1.7,·
CSc1cccc(NS(=O)(=O)c2cccc3nsnc23)c1,·,·,·,0.4,2.3%,-9.2,·,·,0.708
Cc1ccc(S(=O)(=O)N(C)CC(=O)OCC(=O)NCCN2C(=O)CSC2=O)cc1,·,·,·,3.3,·,·,i,-0.2,0.683
Cc1noc(C)c1NC(=O)N(C)C[C@H]1Oc2c(NC(=O)Nc3ccc(F)cc3)cccc2C(=O)N([C@H](C)CO)C[C@H]1C,-4.7,-8.7,-1.0,·,·,·,i,-0.3,·
CCOC(=O)N/N=C\c1ccc([N+](=O)[O-])s1,-8.2,-4.0,1.9,1.3,-2.6%,-29.7,i,0.5,·
Cc1csc(NC(=O)CSc2nnc(-c3ccccc3)o2)n1,·,·,·,0.1,0.3%,1.3,·,·,0.777
CCCc1cc(=O)n2[nH]c(CCc3ccccc3)nc2n1,·,·,·,1.6,-4.7%,21.0,·,·,0.738
COc1ccc(N(CC(=O)Nc2ccccc2C(=O)NCC(C)C)S(C)(=O)=O)cc1,·,·,·,5.4,-1.8%,1.3,·,·,0.716
Clc1ccccc1CONc1ncnc2nonc12,-25.9,-40.6,-8.9,0.9,-1.1%,-2.5,i,3.2,0.664
Nn1c(SCC(=O)NC(=O)NC2CCCC2)nnc1-c1ccccc1F,·,·,·,-1.4,5.5%,-15.3,·,·,0.655
CC(Oc1cccnc1[N+](=O)[O-])C(=O)Nc1ccc(Cl)cn1 (centres undefined),1.8,-3.3,-3.5,-1.1,-7.8%,-7.1,i,2.8,0.706
COc1ccc(Cl)cc1NC(=O)CN1CCc2ccccc2C1,-9.9,-19.0,-1.7,0.1,·,-4.5,i,2.8,0.708
CCn1cc(C(=O)NCc2ccc3c(c2)OCO3)c(=O)c2cc(F)c(N3CCN(C)CC3)cc21,·,·,·,4.2,0.6%,-1.8,·,·,0.0435*
COc1cccc(/C=N/n2c(C3CCCCC3)n[nH]c2=S)c1O,3.6,7.9,0.3,2.1,0.3%,91.9*,i,-9.0,·
CN1C(=O)c2cc(NC(=O)c3cscn3)ccc2OC[C@H]2O[C@H](CC(=O)N3CCOCC3)CC[C@H]21,3.6,9.4,-2.3,·,·,·,i,-0.7,·
S=C(NCc1ccccn1)Nc1ccc(Br)cc1Cl,-24.9,-10.4,-4.7,0.1,5.1%,-6.9,i,-1.4,0.603
COc1cccc(CNC(=O)C[C@H]2CC[C@H](NC(=O)C3CC3)[C@H](CO)O2)c1,0.3,0.3,2.4,·,·,·,i,-0.8,·
CCCC(=O)Nc1nnc(S(=O)(=O)N(CC(C)C)c2ccccc2)s1,5.5,12.8,-2.3,-2.8,-10.3%,0.6,i,-1.9,0.692
COc1ccc(NC(=O)c2cccc3c(-c4ccc(OC)cc4C)coc23)cc1,2.7,2.9,14.1,-2.7,·,·,i,-1.0,·
CCN(CC)C1Oc2cc3c(cc2C(c2cccc(OC)c2O)C1C)OCO3 (centres undefined),-23.9,-40.9,-15.8,3.2,-1.8%,·,i,6.8,·
CCCCNC(=O)c1nc(-c2cccnc2)oc1-c1ccc(OC(F)(F)F)cc1,-5.8,11.2,8.8,2.2,·,·,i,0.2,·
O=c1c2c3c(sc2nc(NCCO)n1CCc1ccccc1)CCCCC3,·,·,·,3.6,·,17.6,·,·,0.681
CC(C)NC(=O)N(C)C[C@@H]1Oc2c(NC(=O)c3nc4ccccc4s3)cccc2C(=O)N([C@@H](C)CO)C[C@@H]1C,-2.0,1.2,0.0,·,·,·,i,-0.1,·
O=C(Nc1nc2ccccc2[nH]1)C1CCC1,17.5,12.8,-0.9,-1.1,0.1%,-3.6,i,0.8,0.691
CCOC(=O)N1CCN(C(=O)C2CCC(=O)N(Cc3ccccc3OC)C2)CC1 (centres undefined),-0.5,1.9,1.2,-3.2,-6.8%,·,i,1.1,·
CCN(CC)S(=O)(=O)c1ccc(NC(=O)CCNC(=O)c2ccco2)cc1,·,·,·,-3.3,0.4%,-5.6,i,0.1,0.636
C/C=C/c1ccc([C@H]2[C@@H](CO)N(C(C)=O)[C@@H]2CNC(=O)c2ccccc2)cc1,-3.9,3.1,-0.2,·,·,·,i,2.2,·
O=C(NCc1nc2ccccc2[nH]1)C1=C[C@H](c2ccccc2)C[C@H](OCc2ccc(CO)cc2)O1,-23.4,-7.2,33.6,-5.1,·,-0.5,i,-7.8&-10.1,·
CC(C)CC(=O)Nc1ccc2ccccc2c1,-4.2,-5.2,-1.5,-3.4,-13.3%&-1.1%,-5.5,i,-2.9,0.722
O=c1[nH]cnc2c1sc1nc3c(c(-c4ccc(Cl)cc4)c12)CCC3,·,·,·,0.7,14.8%,-4.0,·,·,0.755
COc1ccc(CN(C)C[C@@H]2Oc3c(NC(=O)Nc4ccc(OC)cc4)cccc3C(=O)N([C@@H](C)CO)C[C@@H]2C)cc1,1.0,9.4,-1.3,·,·,·,i,0.3,·
O=C(NCc1ccco1)C(c1ccccc1)N(Cc1cccnc1)C(=O)Cn1nnc2ccccc21 (centres undefined),·,·,·,-0.8,2.8%,-5.1,·,·,0.778
CCN(C[C@H]1N[C@@](CC)(C(=O)OC)[C@H]2C(=O)N(Cc3ccccc3)C(=O)[C@@H]12)C(=O)Nc1ccc(C(F)(F)F)cc1,-32.6,-57.8,-12.6,-2.1,·,0.4,i,-3.0,·
Cn1c(=O)[nH]c(=O)c2c1nc(Br)n2C/C=N/NC(=O)c1ccccc1,1.7,3.9,-2.1,2.1,-4.1%,-3.5,i,-1.4,·
CCOC(=O)c1c(-c2ccc(C)cc2)csc1NC(=O)CCN1CCOCC1,-10.3,-10.4,11.9,2.5,·,92.2*,i,1.5,0.702
Cc1ccc(CNC(=O)c2ccc(N3CCC4(CC3)CC(c3cccc(Br)c3)=NO4)c(NC(=O)c3cccc(C)c3)c2)cc1,6.4,13.4,-1.0,14.3,·,-2.6,i,-1.0,0.724
CCN1C(=O)CC(N2CCC(C(=O)N3CCOCC3)CC2)C1=O (centres undefined),·,·,·,0.9,21.6%,5.6,·,·,0.788
CCCCOC(=O)C1=C(C)Nc2nnnn2C1c1ccccc1Cl (centres undefined),·,·,·,5.6,9.1%,-2.3,·,·,0.655
O=C(N/N=C/c1ccco1)c1ccccc1OCc1ccccc1Cl,-34.5,-36.6,-5.0,0.3,·,-19.0,i,-2.2,·
NC(=O)c1ncc(C(F)(F)F)cc1Oc1cccc(C(F)(F)F)c1,·,·,·,2.0,3.3%,1.3,·,·,0.704
CCN1[C@@H]2Cn3c(ccc(/C=C/c4ccccc4)c3=O)[C@H]1[C@@H](C(=O)N1CCOCC1)[C@@H]2CO,-2.4,4.0,-2.1,·,·,·,i,-3.7,·
COc1ccc(N(CC(=O)Nc2cc(Cl)ccc2C)S(=O)(=O)c2c(C)noc2C)cc1,-28.9*,-19.2*,-5.9*,-0.7,·,-4.2,i,0.1,0.706
C[C@@H]1CCCCO[C@@H](CN(C)Cc2ccc(Cl)c(Cl)c2)[C@@H](C)CN([C@H](C)CO)C(=O)c2cc(NS(=O)(=O)c3ccc(Cl)cc3)ccc2O1,1.6,14.9,-2.9,·,·,·,i,-3.1,·
C/C(Cn1nnc([N+](=O)[O-])n1)=N\NC(=O)c1cccc(Cl)c1,10.9,6.6,-1.7,4.2,-4.6%,-12.8,·,5.4,·
O=C(CCNC(=O)c1ccco1)NCCN1C(=O)S/C(=C\c2ccc(F)cc2)C1=O,4.8,10.9,-1.4,0.9,4.8%,-0.6,i,-0.4,0.707
O=C(CN1C(=O)/C(=C/c2ccccc2Cl)SC1=S)NC1CCS(=O)(=O)C1 (centres undefined),-4.6,-0.4,0.6,1.9,12.1%,10.0,i,-7.7,0.712
Cc1cc(NC(=O)c2ccccc2)cc(NC(=O)c2ccccc2)c1C,8.6,-2.7,2.5,4.1,·,·,i,0.1,0.688
CCNC(=S)N1CCN(S(=O)(=O)/C=C/c2ccccc2)CC1,0.0,-5.1,2.7,-1.6,·,·,i,-1.7,0.706
Cc1ccc2[nH]c3c(N4CCOCC4)ncnc3c2c1,·,·,·,4.3,9.0%,-20.5,·,·,0.61
CCCCC(=O)N(C)c1c(CC)nc2c(OCc3ccc(C#N)cc3)cccn12,·,·,·,201.0,·,·,i,0.8,·

# Assay outcomes: PubChem, several laboratories
